High-throughput results as filed in PubChem.
AmpC inh no det – inhibitors of E. coli AmpC beta-lactamase without detergent; AmpC nitrocefin hydrolysis, absorbance 480 nm, no detergent; potencies from a single point are estimates; Potency, µM (highest dose often 28.7 µM), for the others: at the top dose activity change, negative = inhibition; 71,000 tested, 1.8% active; active = falling curve, for most hits resting on a single point; inconclusive = weak or doubtful change; inactive = flat or rising curve; note: % of control where 0% means no effect; about half of the hits show no inhibition at the top dose; a quarter of the inactives give rising signals
Target sequence (P00811 whole entry, looked up): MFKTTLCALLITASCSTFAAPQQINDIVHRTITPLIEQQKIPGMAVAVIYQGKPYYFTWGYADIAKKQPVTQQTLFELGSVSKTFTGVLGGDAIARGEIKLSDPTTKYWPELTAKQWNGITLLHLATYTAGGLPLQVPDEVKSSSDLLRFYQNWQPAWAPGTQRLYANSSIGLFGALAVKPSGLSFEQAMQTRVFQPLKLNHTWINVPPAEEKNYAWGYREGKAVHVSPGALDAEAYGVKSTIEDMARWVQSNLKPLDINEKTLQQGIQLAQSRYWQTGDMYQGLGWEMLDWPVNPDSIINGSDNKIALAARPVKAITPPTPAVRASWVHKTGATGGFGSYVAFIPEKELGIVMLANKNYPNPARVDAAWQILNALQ
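AmpC, 20 mM phosphate pH 7.0; 15 min cpd preinc, RT; start with nitrocefin (800 uM stock); A480 kinetic read, 20 s intervals, 4 min. No-enzyme wells = negative control.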
The depositor's hits bear a star; ? = inconclusive; [ ] = remark or other dose. Potency is the fitted concentration of half-maximal effect.

mol,AmpC inh no det
O=C(NCCN1CCOCC1)c1ccc2c(c1)N(Cc1ccccc1)C(=O)CS2,32%
CCN(CC)S(=O)(=O)c1cc(-c2nnc(-c3ccc(Br)cc3)o2)ccc1Cl,-3%
CCOC(=O)c1cnc2ccc(Br)cc2c1NCC(C)O (stereo unspecified),-5%
O=c1c2ccccc2nc(SCc2nnc(-c3ccccc3Br)o2)n1Cc1ccco1,-8%
CCOC(=O)c1cnc2c(-c3ccccc3)cnn2c1N,-3%
CCCn1c(-c2ccc(OC)cc2)nc2ccccc21,33%
CCCN1C2=NCCN2c2ccccc21,1%
Cc1cccc(NC(=O)CSc2nnc(-c3ccc(S(=O)(=O)N4CCCC4)cc3)o2)c1,-4%
O=c1[nH]cnc2nc3n(c12)CCCCC3,0%
OCCNc1nc2ccccc2n1-c1ccccc1,5%
CC(C(=O)NCC1CCCO1)N(C(=O)c1snc(C(N)=O)c1N)c1ccccc1 (stereo unspecified),13%
CCNc1nc(Oc2ccc(C(=O)OC)cc2)nc(N(C)C)n1,12%
CCOc1ccc2nc(NC(=O)CN3CCC(n4nnc5cc(F)ccc54)CC3)sc2c1,52%
CC(C)C(=O)Nc1cccc(C(=O)NCc2ccc3c(c2)OCO3)c1,9%
O=C(CCn1cnc2ccccc2c1=O)Nc1ccc(S(=O)(=O)N2CCCC2)cc1,32%

Next part:
mol,AmpC inh no det
CCc1c(O)nc(SCC(=O)Nc2ccc(OC)cc2)n(C2CCCCC2)c1=O,4%
COc1ccc(C(c2nnnn2Cc2cccs2)N2CCN(c3ccccc3F)CC2)cc1OC (stereo unspecified),90%
O=C(CCCOc1ccccc1)Nc1nccs1,1%
CCOC(=O)CSc1nnnn1-c1cccc2ccccc12,1%
O=C1CC(c2ccc(F)cc2)Cc2nc(N3CCOCC3)ncc21 (stereo unspecified),30%
N#CCSc1nc2ccc(N3CCCCC3)cc2c(=O)n1Cc1ccccc1,-19%
CNc1cc(-c2ccccc2CN(C)C)ncn1,-10%
Cc1ccc(S(=O)(=O)N2CCCC2C(=O)NCCc2nc3ccccc3[nH]2)cc1 (stereo unspecified),-2%
O=C(Nc1cccc(C(F)(F)F)c1)c1cccnc1N1CCN(CCO)CC1,45%
C=CCOc1cccc(C2C(C(=O)c3ccc(C)o3)=C(O)C(=O)N2c2nccs2)c1 (stereo unspecified),-19%
CCOC(=O)CSc1nc2cccnc2n1-c1ccc(F)cc1,35%
COCCNC(=O)c1ccc(CS(=O)(=O)c2c(Cl)cccc2Cl)o1,20%
C=CCn1c(SCCCc2ccccc2)nc2c1c(=O)[nH]c(=O)n2C,44%
O=C1OC2(CCCCC2)OC(=O)C1=CNc1ccc2c(c1)OCO2,3%
CCn1c(C)cc(=S)c2ccccc21,5%

Continued.
mol,AmpC inh no det
CN(C)C(=O)c1ccc(NC(=O)c2cncc(Br)c2)cc1,4%
Cc1ccc(SCc2[nH]nc3c2C2(C(=O)N(C)c4ccccc42)C(C#N)=C(N)O3)cc1 (stereo unspecified),6%
CCOC(=O)c1c(O)c2c(n(Cc3ccco3)c1=O)CCCC2,16%
COC(=O)c1cnn2c(C(F)(F)F)cc(-c3ccc(F)cc3)nc12,12%
Cn1c(=O)[nH]c(=O)c2c1nc1n2CCCN1CCc1ccccc1,7%
O=C(CSc1nnc(SCC(=O)c2ccco2)s1)c1ccco1,-18%
O=C(c1cccc2ccccc12)N1CCN(c2ccccc2F)CC1,44%
COc1ccc(-n2nnc3c(=O)n(CC(=O)N4CCCC4)cnc32)cc1,13%
C/C=C/COC(=O)c1[nH]c2c(c1C)C(=O)CC(c1ccco1)C2 (stereo unspecified),-11%
CCc1ccc(C(=O)COC(=O)CNC(=O)c2ccco2)cc1,4%
O=C(O)c1cc(NCc2ccccc2C(F)(F)F)ccc1N1CCOCC1,27%
CCOC(=O)COc1ccc2c3c(c(=O)oc2c1C)CCC3,41%
COc1ccc(-c2nc(NC(=O)C3CCN(c4nc5ccccc5o4)CC3)sc2C)cc1,-2%
CC1(C)Cc2c(sc3nc(-c4cc5ccccc5o4)n(N)c(=O)c23)CO1,74%
O=C(Nc1nccs1)c1ccc(Cl)c(S(=O)(=O)N2CCOCC2)c1,6%

(further entries)
mol,AmpC inh no det
CN(C)c1ccc(NC(=O)Cn2c(=O)n(Cc3ccccc3)c(=O)c3ccccc32)cc1,0%
Cn1c(COc2ccccc2)nnc1SCCSc1nnc(COc2ccccc2)n1C,104%
O=C1CN(C(=O)c2ccco2)C(c2ccccc2)c2cc(Cl)ccc2N1 (stereo unspecified),3%
CCOC(=O)N1CCC(N2Cc3cccc(C(=O)NCc4ccccc4OC)c3C2=O)CC1,102%
Cc1[nH]n2c(=O)cc(Cc3ccccc3)nc2c1C#N,-12%
COc1cccc(CN=CC2=C(O)CC(C)(C)CC2=O)c1OC,14%
CC(C)OC(=O)CSc1nnc2n1C(C)(C)Cc1ccccc1-2,29%
COCCn1c(-c2cc(OC)c(OC)c(OC)c2)nc2nc3ccccc3nc21,14%
CCn1c(Cc2ccccc2)nnc1SCC(=O)Nc1ccc(N2CCOCC2)c(Cl)c1,68%
CC1(C)CN=C(Nc2nc3ccccc3s2)S1,2%
COC(=O)[C@@]1(Cc2ccc(F)cc2)[C@H]2c3cc(C(=O)N(C)C)n(Cc4cc(F)c(F)c(F)c4)c3C[C@H]2CN1C(=O)c1ccccc1,12%
O=C(CN1C(=O)C2C3c4ccccc4C(c4ccccc43)C2C1=O)N1CCOCC1 (stereo unspecified),74%
Nc1nc(Cc2ccccc2)nc(Cc2ccccc2)c1-c1ccccc1,6%[5.75 µM]
CCOC(=O)N1CCN(C(=O)CCc2nc3sc4c(c3c(=O)[nH]2)CCCC4)CC1,107%
Cc1cc(=O)n(-c2ccc(O)cc2)[nH]1,-15%

Following part:
mol,AmpC inh no det
Cc1nc2nc(C)c(CCC(=O)NCCC3=CCCCC3)c(C)n2n1,28%
COc1ccc(Cl)cc1-c1nc(-c2ccncc2)no1,3%
O=C(c1cccc(F)c1)N1CCN(S(=O)(=O)c2ccc(C(F)(F)F)cc2)CC1,34%
CCOC(=O)C(NS(=O)(=O)c1ccc(Br)cc1)C(C)C (stereo unspecified),-8%
Cc1cc(NC(=O)c2noc3c2CCCCC3)no1,-8%
CS(=O)(=O)Nc1ccc(Nc2c3ccccc3nc3ccccc23)cc1,-9%[5.75 µM]
CCc1nnc(NC(=O)CCC(=O)N2CCN(Cc3ccc(Cl)cc3)CC2)s1,92%
O=C(c1nn(Cc2ccccc2)c(=O)c2ccccc12)N1CCN(c2ccccn2)CC1,107%
CC1CCCC(NC(=O)COC(=O)Cc2cn3ccsc3n2)C1C (stereo unspecified),16%
O=C(CCCc1nc(-c2ccccc2)no1)N1CCOCC1,8%
CCCOc1ccc2c(C)c(CC(=O)OC)c(=O)oc2c1,40%
CN1c2ccccc2C(C)(C)C12CCCC(=O)N2 (stereo unspecified),-4%
O=C(Nc1ccc(Cl)cn1)Nc1cccs1,-12%
O=C(CSc1nc(-c2ccc(F)cc2)cc(C(F)(F)F)n1)NCCN1CCOCC1,66%
CCNc1ncc2nc(-c3cn(C)c4ccccc34)c(=O)n(Cc3cccs3)c2n1,12%

4 entries already listed, arranged by heavy-atom count, ascending.
mol,AmpC inh no det
O=C(Nc1ccc(Cl)cn1)Nc1cccs1,-12%
CN1c2ccccc2C(C)(C)C12CCCC(=O)N2 (stereo unspecified),-4%
CCCOc1ccc2c(C)c(CC(=O)OC)c(=O)oc2c1,40%
O=C(CSc1nc(-c2ccc(F)cc2)cc(C(F)(F)F)n1)NCCN1CCOCC1,66%

Other compounds
mol,AmpC inh no det
CC[C@@H]1CC(=O)N(SC[C@H](N)C(=O)O)C1=O,-4%[5.75 µM]
O=C(NC1CCCCC1)C1CCN(C(=O)NCc2ccccc2)CC1,5%
CC(C)(C)C(=O)COC(=O)c1ccc(O)cc1,-7%
Cc1nn(CC(=O)Nc2cccnc2N2CCOCC2)c(=O)c2ccccc12,18%
c1ccc(Cn2nnc3c(N4CCC5(CC4)OCCO5)ncnc32)cc1,49%
C=CC(=O)NC(C)C,-8%
O=C(CN1CCC(C(=O)c2ccc3c(c2)OCCO3)CC1)NC1CCCC1,23%
COc1ccc(-c2nnc(SCCC(=O)O)n2C)cc1OC,6%
CNC(=O)OC(C)CNS(=O)(=O)c1ccc(C)cc1 (stereo unspecified),2%
CC1CCN(CCNC(=O)c2ccc(NC(=O)C3CCCO3)cc2)CC1 (stereo unspecified),-15%
O=C(CSc1nc2ccccc2o1)NC(=O)NCc1ccco1,-3%
COc1ccc(OC)c(C(=O)COC(=O)c2ccccc2O)c1,0%
C=CCN(CC=C)C(=O)CN1C(=O)c2ccccc2C1=O,-5%
CCCCn1nnnc1NCc1ccc(OC)c(OC)c1,4%
O=C(O)CCc1ccc(-c2cccs2)o1,-13%

(listing goes on)
Structure,AmpC inh no det
c1ccc(CSc2nnnn2-c2cccc3ccccc23)nc1,24%
CCOC(=O)COc1ccc(CCNC(C)=O)cc1,-11%
CC(NC(=O)c1cccnc1)C(=O)N1CCCCC1 (stereo unspecified),-6%
Fc1ccc(-n2cnnn2)c(F)c1,-14%
CS(=O)(=O)N(Cc1ccc(C(=O)NC2CCCCC2O)cc1)c1ccccc1 (stereo unspecified),23%
CCCCn1c(NC(=O)c2ccc(F)cc2)c(C#N)c2nc3ccccc3nc21,16%
Cc1ccc(CCNC(=O)CCNS(=O)(=O)c2ccc3c(c2)oc(=O)n3C)cc1,20%
CCN(CC)C(=O)N1CCC(NC(=O)Cc2ccccc2)CC1,4%
O=C(Cc1c(O)c2ccccc2[nH]c1=O)NCc1cccc(F)c1,-10%
O=S1(=O)N[C@H]2CC[C@@H]3NS(=O)(=O)N[C@H]4CC[C@H](N1)N4S(=O)(=O)N23,-24%[5.75 µM]
Cn1c(C(=O)NCCCN2CCCC2=O)cc2c(=O)n3ccccc3nc21,7%
CCOc1ccccc1OCC(=O)OCC(=O)Nc1ncc(Cl)cc1Cl,17%
CN1C[N+]([O-])=C(c2ccccc2)C1(C)C,-7%
O=C(Cc1c(F)cccc1Cl)N1CCCC1,8%
COCC(=O)NCc1nc2ccccc2[nH]1,-18%
c1ccc2c(c1)C(=Nc1ccc(N=C3c4ccccc4-c4ccccc43)cc1)c1ccccc1-2,4%[5.75 µM]
CC=C(Cl)Cl,-1%
CCOC(=O)c1cnn(-c2nc(-c3ccccc3)nc3c2COC(C)(C)C3)c1N,53%
CCOC(=O)N1CCC(NC(=O)c2cc(C(=O)Nc3ccc(OCC)cc3)ccc2CO)CC1,67%
CC(=O)OCCN(CCOC(C)=O)c1c(C)[nH]c(=O)[nH]c1=O,-6%

Further results.
Structure,AmpC inh no det
CCSC1=C(C#N)C2(CCCCC2)C(C#N)=C(N)N1,-14%
CCOCCCNC(=O)NC12CC3CC(CC(C3)C1)C2,9%
COc1cc(C(=O)N2CCN(C(=O)C(Cc3cc(C)ccc3C)NC(C)=O)CC2)cc(OC)c1OC (stereo unspecified),97%
CN1CCN(C(=O)CCC(=O)c2ccc(F)cc2)CC1,3%
O=C(c1csnn1)N1CCC2(CCCN(c3ccccc3)C2)CC1,59%
CCn1c(CCNC(=O)c2cccs2)nnc1SCC(=O)c1ccc(OC)cc1,19%
CCN1CCN(C(=O)CCN2C(=O)COc3ccc(C)cc32)CC1,-7%
COc1nc(N2CCOCC2)nc(-n2cccc2)n1,29%
CC12CC(NC(=O)N1c1cccc(C(=O)N3CCN(c4ccccc4)CC3)c1)c1ccccc1O2 (stereo unspecified),119%
CCOc1ccccc1N1CC(O)=C(c2nc3ccccc3s2)C1=N,23%
Cc1nn(CCC(=O)O)c2nc(-c3cccnc3)cc(C(F)(F)F)c12,16%
COc1ccc2[nH]cc(C(=O)CN3CCN(C4CCCCC4)CC3)c2c1,-1%
COC(=O)c1ccc(C)c(N(CCO)CCO)c1,-2%
CC1=CC(C)C(/C=N/n2cnnc2)C(C)C1 (stereo unspecified),11%
COc1ccc(S(=O)(=O)Nc2ccc(O)c3ccccc23)cc1,-22%
O=C(Nc1cccnc1)c1ccc(COCC(F)(F)F)cc1,10%
Cc1ccc(C)c(S(=O)(=O)NCc2ccc(C(=O)N3CCN(C)CC3)cc2)c1,-6%
O=C(Nc1cc(N2CCOCC2)ncn1)NC1(C(F)(F)F)Oc2ccc(Cl)cc2O1 (stereo unspecified),9%
Cc1ccc2c(c1)c(C)c(C)n2CC(O)Cn1nc(C)cc1C (stereo unspecified),71%
CC1(C)S[C@@H]2[C@H](NC(=O)[C@H](N)c3ccccc3)C(=O)N2[C@H]1C(=O)O,?

Entries from the list above containing two or more sulfur atoms, in the order listed:
Structure,AmpC inh no det
Cc1cccc(NC(=O)CSc2nnc(-c3ccc(S(=O)(=O)N4CCCC4)cc3)o2)c1,-4%
O=C(CSc1nnc(SCC(=O)c2ccco2)s1)c1ccco1,-18%
O=C(Nc1nccs1)c1ccc(Cl)c(S(=O)(=O)N2CCOCC2)c1,6%
Cn1c(COc2ccccc2)nnc1SCCSc1nnc(COc2ccccc2)n1C,104%
CC1(C)CN=C(Nc2nc3ccccc3s2)S1,2%
O=S1(=O)N[C@H]2CC[C@@H]3NS(=O)(=O)N[C@H]4CC[C@H](N1)N4S(=O)(=O)N23,-24%[5.75 µM]
CCn1c(CCNC(=O)c2cccs2)nnc1SCC(=O)c1ccc(OC)cc1,19%

More entries follow.
Structure,AmpC inh no det
COCCn1c(SCC(=O)Nc2cccc(C(=O)OC)c2)nc2ccccc2c1=O,77%
CS(=O)(=O)N(CC(=O)N1CCOCC1)c1ccc2c(c1)OCO2,0%
O=S(=O)(/C=C/c1ccccc1)NCCc1ccccn1,7%
CC(C)(C)NC(=O)CSc1nnc(-c2ccccn2)n1-c1ccccc1,16%
CCOC(=O)/C(C#N)=C1/C=C(C)NC(c2ccccc2O)=N1,10%
CNC(=O)c1[nH]cnc1C(=O)Nc1cccc(OC)c1,19%

An excerpt; the hit share may differ from the screen's.
